HCMV NEC inh: inhibitors of HCMV UL50-UL53 interaction, biochemical, HTRF | normalized percent inhibition | inhibition, % (test concentration not listed) | AID 1918969, 2023 | hit rate 0.15% among 190,000;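 active = both replicates at 50% or more, plus weaker picks with an unusually low signal ratio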;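 note: stock transfer was 100 nL into about 20 µL; 0% = negative control wells and 100% = wells with untagged competitor protein; inactives centre near -12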
Sa growth 42C: S. aureus growth inhibition at 42 and 30 °C, primary screen, LtaS inhibitor project, RN4220, two temperatures; OD600, 20 h, 42 °C; hits give low values; relative growth, % (no concentration beside the values); hit rate 0.53% among 170,000; AID 720641, 2013;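 active = growth at 42 °C up to 50% and 20 or more points under that at 30 °C, or under 10% at both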;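 note: 300 nL library stock went into each well; scaled to the means of positive and negative controls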
GIV-Gai inh: inhibitors of GIV peptide binding to Galpha-i3, primary screen, biochemical, fluorescence polarization, FITC-GIV GBA peptide, rat Galphai3; Guanine nucleotide-binding protein G(i) subunit alpha-3 (Rattus norvegicus), P08753; 90 min; hits give low values; scaled: aluminum fluoride 0%, vehicle 100%; percent of control (FP), % (concentration not given with the values); hit rate 0.42% among 210,000; AID 1224905, 2016;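 active = replicate mean at 85% of control or lower, very high polarization wells dropped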;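 note: wells of about 15 µL received 100 nL stock; the first replicate is given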
Target sequence (P08753 whole entry, looked up): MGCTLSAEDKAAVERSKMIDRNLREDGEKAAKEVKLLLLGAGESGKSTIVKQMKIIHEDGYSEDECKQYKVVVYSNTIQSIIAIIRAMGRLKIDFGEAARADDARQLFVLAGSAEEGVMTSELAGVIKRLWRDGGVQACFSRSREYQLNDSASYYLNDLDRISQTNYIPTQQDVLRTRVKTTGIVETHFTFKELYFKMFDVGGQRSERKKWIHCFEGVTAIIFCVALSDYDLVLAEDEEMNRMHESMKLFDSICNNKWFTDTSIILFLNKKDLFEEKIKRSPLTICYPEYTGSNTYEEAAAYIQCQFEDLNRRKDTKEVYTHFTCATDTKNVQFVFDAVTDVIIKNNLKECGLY
Sa growth 42C second temp: also measured in Sa growth 42C; calls as there; relative growth, %; measured here: growth at 30 °C;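 optical density after 20 h as mean of two plates; 100% = untreated growth and lower means inhibition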
Starred values were filed as active, the others as inactive; · = not tested or not shown; & = joins results of further samples.

SMILES | HCMV NEC inh | Sa growth 42C | Sa growth 42C second temp | GIV-Gai inh
CC1=C(C(=O)Nc2ccccn2)C(c2ccc(C)cc2)C2=C(CC(C)CC2=O)N1 (stereo unspecified) | · | 86 | 62 | 102
COc1ccccc1CNC(=O)c1[nH]cnc1C(=O)NCC1CCCCC1 | -15 | · | · | 103
O=S1(=O)NC(c2ccc(O)cc2)Nc2ccccc21 (stereo unspecified) | 18 | · | · | 100
C=CCSc1nc(N)c2c(C)c(C(=O)O)sc2n1 | -41 | 77 | 80 | 98
O=C(Nc1cccc(NC(=S)NC(=O)c2ccco2)c1)c1ccccc1 | · | 90 | 80 | 104
N#Cc1c2c(c(Nc3ccccc3)n3c1nc1ccccc13)CCC2 | · | 117 | 90 | 104
CCn1cc2nc(SCC(=O)Nc3ccc(C)cc3)n(Cc3ccc(C)cc3)c(=O)c2n1 | · | 190 | 101 | 100
O=C(Nc1ccc(F)cc1)C1COc2ccccc2O1 (stereo unspecified) | -9 | · | · | 110
CN(Cc1ccccc1)C(=O)c1cc2c(=O)n(C)c3ccccc3c2s1 | -19 | 104 | 92 | 103
Cn1cc(C(CNC(=O)Nc2ccc3c(c2)OCO3)c2cccnc2)c2ccccc21 (stereo unspecified) | -11 | · | · | 101
Nc1nc(-c2ccc(F)cc2)nn1C(=O)C1CC1 | 5 | · | · | 100
Cc1c(C)c(C)c(CSC2=NCC(C)N2)c(C)c1C (stereo unspecified) | -3 | 96 | 96 | 106
Brc1cnc(N2CCCCC2)nc1N1CCOCC1 | · | 97 | 77 | 97
Cn1c(SCCCCN2C(=O)c3ccccc3C2=O)nnc1-c1ccccc1 | -23 | 99 | 88 | ·
CC(C)(CNC(=O)c1n[nH]c2ccccc12)N1CCCCC1 | 11 | 110 | 97 | ·
CCOc1ccccc1C(=O)NCc1n[nH]c(=O)c2ccccc12 | -35 | 75 | 88 | 99
O=C(CSc1n[nH]c(=O)n1-c1cccnc1)c1cc(-c2ccccc2)no1 | -35 | 86 | 85 | 108
Cc1ccc(O)c(-c2ccnc3cc(-c4ccccc4)nn23)c1 | -29 | · | · | 99
Cc1ccccc1OCc1ccc(-c2nc(C#N)c(N3CCN(c4ccccc4)CC3)o2)o1 | 13 | 85 | 96 | 108
Cc1cc(=O)nc2c3ccccc3n(CC(=O)N3CCC(Cc4ccccc4)CC3)n12 | -6 | · | · | 115

By substructure: the compounds so far containing sulfur
SMILES | HCMV NEC inh | Sa growth 42C | Sa growth 42C second temp | GIV-Gai inh
O=S1(=O)NC(c2ccc(O)cc2)Nc2ccccc21 (stereo unspecified) | 18 | · | · | 100
C=CCSc1nc(N)c2c(C)c(C(=O)O)sc2n1 | -41 | 77 | 80 | 98
O=C(Nc1cccc(NC(=S)NC(=O)c2ccco2)c1)c1ccccc1 | · | 90 | 80 | 104
CCn1cc2nc(SCC(=O)Nc3ccc(C)cc3)n(Cc3ccc(C)cc3)c(=O)c2n1 | · | 190 | 101 | 100
CN(Cc1ccccc1)C(=O)c1cc2c(=O)n(C)c3ccccc3c2s1 | -19 | 104 | 92 | 103
Cc1c(C)c(C)c(CSC2=NCC(C)N2)c(C)c1C (stereo unspecified) | -3 | 96 | 96 | 106
Cn1c(SCCCCN2C(=O)c3ccccc3C2=O)nnc1-c1ccccc1 | -23 | 99 | 88 | ·
O=C(CSc1n[nH]c(=O)n1-c1cccnc1)c1cc(-c2ccccc2)no1 | -35 | 86 | 85 | 108

(next part)
SMILES | HCMV NEC inh | Sa growth 42C | Sa growth 42C second temp | GIV-Gai inh
Cc1cc2c(cc1S(=O)(=O)N1CCCC(C(=O)N3CCCCC3)C1)OC(C)C(=O)N2 (stereo unspecified) | -8 | · | · | 102
CC(=O)N1N=C(c2cc(C3CC3)nc3ccccc23)OC1c1ccccc1 (stereo unspecified) | -12 | · | · | 106
COc1ccc(OC)c(CCNC(=O)CCc2nnc3ccc(N4CCN(C)CC4)nn23)c1 | -8 | 90 | 95 | 106
O=S(=O)(c1ccccc1)c1nc(-c2ccc(F)cc2)oc1N1CCCC1 | -10 | · | · | 100
Cn1c(=O)c(-c2noc(C(=O)NCCCN3CCCC3)n2)nn(-c2ccc(F)cc2)c1=O | -73 | · | · | 96
CSc1cccc(NC(=O)Cn2cnc(S(=O)(=O)N3CCCC3)c2)c1 | · | 110 | 93 | 105
C1CCCCCC2(CCCCC1)OCC(CN1CCCCC1)O2 (stereo unspecified) | · | 106 | 98 | 95
CCOC(=O)c1sc2ncn(CC(=O)Nc3ccc(C)cc3Br)c(=O)c2c1C | -35 | 99 | 94 | 103
Cc1cc(C(=O)NCc2ccc(OC(C)C)cc2)c2c(=O)n(C)c(=O)n(C)c2n1 | -25 | · | · | 102
c1ccc2c3c(c(CN4CCCC4)cc2c1)COC3 | -17 | 92 | 82 | ·
CC(=O)Nc1cccc(NS(=O)(=O)c2ccc(C)cc2)c1 | -7 | 70 | 86 | ·
COC(=O)c1sc(N)c(C(=O)OC)c1CSc1n[nH]c(N)n1 | -10 | 88 | 91 | ·
N#C/C=C(\c1ccc(F)cc1)n1ccnc1 | -52 | 67 | 89 | ·
Cc1ccc(NC(=O)CSCn2nnc3c(=O)[nH]c(Cc4ccc(F)cc4)nc32)c(C)c1 | -19 | 102 | 89 | 112
O=C(CCCc1nnc2c(=O)n(-c3ccc(Cl)cc3)ccn12)N1CCN(c2ccccc2)CC1 | -20 | 113 | 94 | 107
COc1ccc(NC(=O)C2CCCN2S(=O)(=O)c2ccc3c(c2)N(C(C)=O)CCO3)cc1 (stereo unspecified) | -23 | · | · | 102
CCOC(=O)C1=NN(C(C)=O)C2C(=O)N(Cc3ccccc3)C(=O)C12 (stereo unspecified) | -4 | 113 | 99 | 102
COc1ccc(-c2cn3c(C)c(C(=O)Nc4cc(Cl)ccc4OC)sc3n2)cc1 | -24 | · | · | 103
NC(=O)c1ccccc1NC(=O)/C=C/c1ccccc1 | -36 | 82 | 96 | 101
CCN(CC(=O)NCc1cccs1)C(=O)c1ccc2c(c1)SC1=NS(=O)(=O)CCN12 | -14 | 90 | 93 | ·
O=C(NC1CCCC1)c1ccc(CS(=O)(=O)c2ccc(Cl)cc2)o1 | -4 | 107 | 86 | 99
COC(=O)CCc1n[nH]c(=S)[nH]c1=O | -6 | 97 | 84 | 103
O=C(O)/C=C/C(=O)Nc1ccc(-n2ccc(C(F)(F)F)n2)cc1 | -17 | 92 | 88 | 92
CCOC(=O)c1c(C)oc2nc(C)nc(NCCCN3CCN(c4cccc(C)c4)C(C)C3)c12 (stereo unspecified) | · | 112 | 102 | 110
CCOc1ccc(NS(=O)(=O)c2cc(C(=O)N3CCN(c4ccccc4OC)CC3)n[nH]2)cc1 | 6 | · | · | 99
CCOC(=O)c1cc2c(nn3cc(C(=O)c4ccccc4O)cnc23)[nH]c1=O | -76 | 96 | 79 | ·
O=C(CN1C(=O)COc2ccc(S(=O)(=O)N3CCCCCC3)cc21)Nc1cccc(Cl)c1 | · | 88 | 71 | 104
Cc1ccc(N2CC(C(=O)Nc3cc4c(cc3Sc3ccccc3)n(C)c(=O)n4C)CC2=O)cc1 (stereo unspecified) | -37 | · | · | 100
CCOC(=O)c1cc(C(=O)Nc2cc(C)cc(C)c2)c(=O)[nH]c1C | 18 | · | · | 105
CCn1nccc1C1CCCN1S(=O)(=O)c1ccc(F)cc1 (stereo unspecified) | 13 | · | · | 102
CCOC(=O)c1ccc(NC(=O)CN2C(=O)c3cccnc3Oc3ccc(Cl)cc32)cc1 | · | 91 | 74 | 109
O=S(=O)(NCc1ccc2c(c1)OCO2)c1ccc(N2CCOCC2)nc1 | -13 | 95 | 86 | 105
O=C(Nc1c(-c2ccc(F)cc2)nc2ccccn12)c1ccccc1F | 11&-16 | 105 | 102 | 102&104
CCOc1cc(C2CC(=O)NC3=C2C(=O)C(C(=O)OC)C(C)C3)cc(Br)c1O (stereo unspecified) | 1 | 104 | 96 | 114
COc1cccc(-n2cc(C(=O)N3CCN(C4CCCCC4)CC3)c3ccccc3c2=O)c1 | 14 | 103 | 95 | 105
O=C1CCC/C(=N\NC(=O)CCCOc2ccc(Cl)cc2Cl)C1 | 0 | 95 | 93 | ·
COC(CN=Cc1c(O)n(C)c(=O)n(C)c1=O)OC | -16 | 73 | 91 | ·
c1ccc(CNc2ncnc3sc4c(c23)CCCC4)cc1 | 1 | 63 | 61 | ·
C=CCN1CCN(C(c2ccccc2)c2nnnn2CCC(C)C)CC1 (stereo unspecified) | -17 | 107 | 92 | 108
O=c1[nH]c(=O)c2nc3ccccc3nc2[nH]1 | -74&-131 | 78 | 87 | 106&101&94
COc1ccc(NC(=O)CN2CCCn3nc(C)cc32)cc1 | 0&7 | 105 | 99 | 105&103
Cc1ccc(CNc2ccc3c(c2)nc(C)n3C)cc1 | 4 | 102 | 88 | 110
O=C(CCn1nc(-c2ccccc2)ccc1=O)NC1CC1 | · | 112 | 98 | 107
CCSc1nc2ccc(C)cc2cc1C#N | -2 | 97 | 99 | 104
Cc1ccc2[nH]cc(C(=O)N3CCSCC3)c(=O)c2c1 | 1 | · | · | 106
CN(C)C(=O)c1ccccc1-c1ccccc1 | -1 | 99 | 96 | 102
CCOc1ccc(CN(C)CC(O)COc2cccc(Br)c2)cc1 (stereo unspecified) | -10 | 94 | 76 | ·
COc1ccc(C2CC(c3ccc(OC)c(OC)c3)=NN2S(=O)(=O)c2ccc(C)cc2)cc1 (stereo unspecified) | -14 | · | · | 100
CNC(=O)CSc1nnc(-c2cccc(S(=O)(=O)N3CCCC3)c2)n1-c1ccccc1 | -30 | 81 | 98 | ·
CCOC(=O)C1=C(C)Nc2ccccc2N=C1NC(=O)Cc1ccc(OC)cc1 | -15 | 85 | 87 | ·
CCOc1ccc(CCNC(=O)c2nnc(-c3cccnc3)o2)cc1OCC | -6 | 80 | 94 | 103
Cc1ccc(CNC(=O)C2CCN(S(=O)(=O)c3c(C)noc3/C=C/c3c(C)cc(C)cc3C)CC2)cc1 | · | 98 | 91 | 103
CCCCn1c(NCc2ccccn2)nc2ccccc21 | · | 88 | 75 | 97
CCc1c(C)[nH]c2ccc(C(=O)O)cc12 | 3 | 107 | 83 | 105
N=C1N=C(N)C(Cc2ccccc2)S1 (stereo unspecified) | 6 | 76 | 81 | 101
O=C(CN1CCC(n2cnc3cc(F)ccc32)CC1)Nc1ccccc1Br | 3 | 100 | 47 | 104
CC(=O)N(Cc1ccc2c(c1)OCO2)c1nnc(C)s1 | 6 | 94 | 108 | 108
CCn1c(=O)n(CC(=O)N2CC(C)CC(C)C2)c(=O)c2ccccc21 (stereo unspecified) | · | 97 | 86 | 102
N#CC1=C2SCC(O)(c3ccccc3)N2C(=O)CC1c1cccs1 (stereo unspecified) | -55 | 164 | 53 | ·
COc1cc2c(cc1OC)C(c1ccc(Cl)cc1)N(c1cccc(C#N)c1)C(=O)C2 (stereo unspecified) | -30 | 114 | 71 | 98

As entered above.
`Cc1ccc2[nH]cc(C(=O)N3CCSCC3)c(=O)c2c1` – HCMV NEC inh: 1
`COc1ccc(NC(=O)CN2CCCn3nc(C)cc32)cc1` – GIV-Gai inh: 105&103
`CCSc1nc2ccc(C)cc2cc1C#N` – HCMV NEC inh: -2
`CNC(=O)CSc1nnc(-c2cccc(S(=O)(=O)N3CCCC3)c2)n1-c1ccccc1` – Sa growth 42C second temp: 98
`CCCCn1c(NCc2ccccn2)nc2ccccc21` – Sa growth 42C: 88

Additional results follow:
SMILES | HCMV NEC inh | Sa growth 42C | Sa growth 42C second temp | GIV-Gai inh
CCOC(=O)c1cnc2c(ccc3ccccc32)c1Nc1ccc(C(C)=O)cc1 | -26 | 106 | 89 | 101
CN(CCCNC(=O)c1nc(-c2nn(-c3ccccc3)c(=O)n(C)c2=O)no1)c1ccccc1 | -89 | · | · | 103
Cc1ccc(Cl)cc1NCc1nc2nc3c(c(=O)n2[nH]1)CCC3 | -25 | · | · | 102
O=C(CCSc1ccccc1)Nc1ccccc1C(=O)O | -16 | 108 | 89 | ·
COc1ccccc1C(C)NCc1nc2ccc(Cl)cc2n1CCO (stereo unspecified) | -28 | 95 | 84 | ·
CCN1C(=O)c2cccc3cccc1c23 | -46 | 113 | 90 | ·
COc1ccc(N2C(=O)NC(=O)/C(=C/c3ccc(OCCBr)cc3)C2=O)cc1 | -21 | · | · | 91
Cc1cc(C)cc(NC(=O)CSc2cc(C)[nH]c(=O)n2)c1 | · | 120 | 94 | 101
CCn1cc(C(=O)NCCOC)c(=O)c2cc(S(=O)(=O)N3CCOCC3)ccc21 | -13 | 98 | 87 | 101
CCn1c(COC)nc2ccccc21 | -10 | · | · | 104

Arranged by number of heavy atoms (smallest number first): some entries from above.
SMILES | HCMV NEC inh | Sa growth 42C | Sa growth 42C second temp | GIV-Gai inh
CCn1c(COC)nc2ccccc21 | -10 | · | · | 104
O=C(CCSc1ccccc1)Nc1ccccc1C(=O)O | -16 | 108 | 89 | ·
COc1ccc(N2C(=O)NC(=O)/C(=C/c3ccc(OCCBr)cc3)C2=O)cc1 | -21 | · | · | 91

Screens deposited in PubChem BioAssay by ICCB-Longwood Screening Facility, Harvard Medical School.
